MLL AF4-AF9 inh: blocks AF4 peptide binding to human AF9; AID 651704; AlphaScreen, biotin-AF4 peptide binding to FLAG-AF9; actives 0.47% (n = 350,000); inhibition, % at 10 µM; P42568;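 active = every replicate reaching a set inhibition limit, whatever the replicate mean, cut at about 25% in these data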;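 note: 0% = plate neutral control median and 100% = total signal loss; the record names both 10 and 1 µM as test concentration; the first replicate is given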
Target sequence (P42568 whole entry, looked up): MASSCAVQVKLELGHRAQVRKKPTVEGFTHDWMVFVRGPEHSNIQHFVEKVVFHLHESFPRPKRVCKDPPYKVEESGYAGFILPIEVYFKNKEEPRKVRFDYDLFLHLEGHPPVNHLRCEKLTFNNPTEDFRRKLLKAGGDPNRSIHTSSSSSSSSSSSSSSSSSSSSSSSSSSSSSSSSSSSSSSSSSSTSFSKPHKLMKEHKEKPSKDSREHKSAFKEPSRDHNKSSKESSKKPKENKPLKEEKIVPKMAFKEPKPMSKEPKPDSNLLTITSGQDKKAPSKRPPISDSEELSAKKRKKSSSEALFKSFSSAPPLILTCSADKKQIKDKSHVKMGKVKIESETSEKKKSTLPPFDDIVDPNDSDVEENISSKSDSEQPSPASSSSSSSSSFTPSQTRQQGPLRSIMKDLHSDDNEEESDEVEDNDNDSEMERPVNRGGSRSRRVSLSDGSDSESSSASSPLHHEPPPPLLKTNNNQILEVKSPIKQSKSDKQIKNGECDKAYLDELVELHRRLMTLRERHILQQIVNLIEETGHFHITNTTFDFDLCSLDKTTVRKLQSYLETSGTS
rRNA inh HTS: inhibits bacterial ribosomal RNA function over humanized ribosomes; E. coli WT GFP vs humanized-ribosome RFP mutants, fluorescence, 24 h; stronger effect = lower value; DMSO median 0, no signal -100; GFP signal change (wild-type ribosome), % (no concentration beside the values); actives 1.6% (n = 350,000);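 active = significant combined selectivity score with lowered wild-type GFP, culture density cut under 30%, mutant RFP and density less affected; inactive = any of these conditions unmet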; note: one replicate is shown; some compounds called inactive have numbers as strong as hits
rRNA inh HTS OD600: further read-out of rRNA inh HTS, marked with its call; OD600 change, %; measured here: OD600 growth;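 optical density of the mix in the first replicate; 0 = DMSO median and -100 = no signal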
rRNA inh HTS RFP: second read-out of rRNA inh HTS, no call of its own (marks repeat the call); RFP signal change, %; measured here: RFP humanized mutant strains;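 first replicate; 0 = DMSO median and -100 = no signal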
Active calls of the source: *.

SMILES	MLL AF4-AF9 inh	rRNA inh HTS	rRNA inh HTS OD600	rRNA inh HTS RFP
O=C(c1ccncc1)N1CC(=O)N2[C@@H](CO)[C@@H](c3ccc(-c4cccnc4)cc3)[C@@H]2C1	-13	3	22	0.4
CN1C(=O)c2cc(NC(=O)c3ccc(C(F)(F)F)cc3)ccc2OC[C@@H]2O[C@H](CC(=O)O)CC[C@@H]21	0.4	-13	-5	-8.4
CC(C)(C)S(=O)N1Cc2cc(C(=O)O)nc(-c3cccc(-c4cccc(F)c4)c3)c2[C@H]1CCO (some centres not stated)	-0.9	2	15	0.3
COCC(=O)N(C)C[C@H]1Oc2ncc(C#Cc3ccccc3OC)cc2C(=O)N([C@@H](C)CO)C[C@@H]1C	-1.7	-5	-6	-5.1
Cc1noc(C)c1NC(=O)N[C@@H]1C=C[C@@H](CC(=O)Nc2ccccc2)O[C@H]1CO	-1.0	2	-2	0.8
C[C@@H]1CN([C@H](C)CO)S(=O)(=O)c2ccc(-c3ccc(C(=O)N(C)C)cc3)cc2O[C@@H]1CN(C)Cc1ccccc1C(=O)O	11	6	8	-2.2
CC(=O)Nc1ccc2c(c1)C(=O)N(C)[C@@H]1CC[C@H](CC(=O)NCc3ccccc3Cl)O[C@H]1CO2	-0.2	2	1	-0.1
C[C@H](CO)N1C[C@H](C)[C@H](CN(C)C(=O)Nc2ccc(-c3ccccc3)cc2)OCc2ccccc2-c2ccccc2C1=O	-7.6	0	8	0.0
C[C@H]1CN([C@@H](C)CO)C(=O)c2cc(NC(=O)CCN3CCOCC3)ccc2O[C@H]1CN(C)Cc1ccc(-c2ccccc2)cc1	7.9	1	-6	2.8
C[C@@H]1CN([C@H](C)CO)S(=O)(=O)c2ccc(-c3cccnc3)cc2O[C@@H]1CN(C)Cc1cncnc1	-0.7	1	4	-4.0
CN(C)CC(=O)N1[C@H](CO)[C@H](c2ccccc2)C12CN(CCC(F)(F)F)C2	0.8	2	10	1.2
C[C@@H]1CN([C@H](C)CO)S(=O)(=O)c2ccc(/C=C/c3ccccc3)cc2O[C@H]1CN(C)C(=O)c1ccncc1	14	-8	-19	-4.0
Cc1ccc(S(=O)(=O)N(C)C[C@@H]2OCCCC[C@H](C)Oc3ccc(NS(=O)(=O)c4cn(C)cn4)cc3C(=O)N([C@H](C)CO)C[C@H]2C)cc1	3.7	-1	-2	-1.2
C[C@H]1CN([C@@H](C)CO)C(=O)c2cccc(NS(=O)(=O)c3ccc(F)cc3)c2O[C@@H]1CN(C)Cc1ccc(C(F)(F)F)cc1	1.1	2	7	1.4
COc1ccc2c3c(n(C)c2c1)[C@H](CO)N(C(=O)c1ccccn1)CC31CCN(C(C)=O)CC1	-6.6	-1	2	-4.9
C[C@@H]1CN([C@H](C)CO)C(=O)c2cc(NC(=O)Nc3ccc4c(c3)OCO4)ccc2O[C@@H]1CN(C)C(=O)Nc1cccc2ccccc12	3.4	-3	-4	2.0
CN(C)C(=O)c1cccc(-c2cnc3c(NC=O)cc(-c4ccccc4F)cn23)c1	1.7	2	-4	0.6
CCCCCc1c(-c2ccc(Cl)cc2)ncn1CCc1ccccc1OC	2.9	-8	-1	1.1
CO[C@@H]1CN(C)C(=O)c2cc(NC(=O)c3ccc(Oc4ccccc4)cc3)ccc2OC[C@H](C)NC[C@@H]1C	9.8	-5	-12	4.1
Cc1cc(C(=O)Nc2cccc3c2O[C@@H](CN(C)S(=O)(=O)c2ccccc2)[C@@H](C)CN([C@H](C)CO)C3=O)n(C)n1	-5.6	-9	-3	0.6
C[C@H]1CCCCO[C@H](CN(C)C(=O)CCCN(C)C)[C@@H](C)CN([C@@H](C)CO)C(=O)c2cc(NC(=O)CCC(F)(F)F)ccc2O1	-0.6	0	3	-0.2
C[C@H]1CN([C@@H](C)CO)C(=O)c2ccccc2-c2ccccc2CO[C@H]1CN(C)Cc1ccc(C(=O)O)cc1	-3.2	5	10	-6.6
CCN1[C@H](C(=O)N[C@H](C)c2ccccc2)[C@@H](CO)[C@@H]2Cn3c(ccc(-c4cccc(F)c4)c3=O)[C@@H]21	0.3	-9	-20	2.1
COc1cccc(CNC(=O)C[C@@H]2CC[C@H]3[C@H](COc4ccc(NC(=O)c5cccs5)cc4C(=O)N3C)O2)c1	-7.3	-10	-16	-1.4
Cc1ccc(S(=O)(=O)N[C@@H]2CC[C@@H](CCNC(=O)Nc3ccc(Cl)cc3)O[C@H]2CO)cc1	14	-34	-50	29
CCCNC(=O)Nc1ccc2c(c1)OC[C@@H](C)N(Cc1ccc(-c3ccccn3)cc1)C[C@H](C)[C@H](OC)CN(C)C2=O	4.5	-5	-4	9.4
COc1ccc(-c2nc3c4ccccc4ccn3c2Cc2ccccc2C(F)(F)F)cc1OC	0.1	12	20	19
Cc1ccc(S(=O)(=O)Nc2ccc3c(c2)C(=O)N([C@@H](C)CO)C[C@@H](C)[C@H](CN(C)C(=O)NC(C)C)OCCCC[C@H](C)O3)cc1	-13	-2	2	-0.5
C[C@H]1CN([C@@H](C)CO)C(=O)c2cc(NC(=O)C3CC3)ccc2O[C@@H]1CN(C)S(=O)(=O)c1ccccc1	-1.7	-1	4	1.7
CCCC#Cc1cnc2c(c1)C(=O)N([C@H](C)CO)C[C@@H](C)[C@@H](CN(C)C(=O)CCN1CCCCC1)O2	-0.8	4	-3	-2.3

Some of these compounds in order of count of non-hydrogen atoms, low to high:
SMILES	MLL AF4-AF9 inh	rRNA inh HTS	rRNA inh HTS OD600	rRNA inh HTS RFP
C[C@H]1CN([C@@H](C)CO)C(=O)c2cc(NC(=O)C3CC3)ccc2O[C@@H]1CN(C)S(=O)(=O)c1ccccc1	-1.7	-1	4	1.7
CO[C@@H]1CN(C)C(=O)c2cc(NC(=O)c3ccc(Oc4ccccc4)cc3)ccc2OC[C@H](C)NC[C@@H]1C	9.8	-5	-12	4.1
COc1cccc(CNC(=O)C[C@@H]2CC[C@H]3[C@H](COc4ccc(NC(=O)c5cccs5)cc4C(=O)N3C)O2)c1	-7.3	-10	-16	-1.4
Cc1ccc(S(=O)(=O)N(C)C[C@@H]2OCCCC[C@H](C)Oc3ccc(NS(=O)(=O)c4cn(C)cn4)cc3C(=O)N([C@H](C)CO)C[C@H]2C)cc1	3.7	-1	-2	-1.2

Going on with the list:
SMILES	MLL AF4-AF9 inh	rRNA inh HTS	rRNA inh HTS OD600	rRNA inh HTS RFP
C[C@@H]1CN([C@H](C)CO)C(=O)c2cc(N(C)C)ccc2O[C@@H](C)CCCCO[C@@H]1CN(C)Cc1ccc(C(=O)O)cc1	0.8	5	5	-2.4
CCC(=O)N1CC2(C1)[C@@H](c1ccccc1)[C@@H](CO)N2C(=O)NC(C)C	-1.7	2	12	-2.0
C[C@H]1CN([C@@H](C)CO)C(=O)Cc2cc(NS(=O)(=O)c3ccc(Cl)cc3)ccc2O[C@H]1CN(C)S(=O)(=O)c1ccc(Cl)cc1	2.9	1	1	3.4
O=S(=O)(N[C@@H]1CC[C@@H](CCn2cc(C3CC3)nn2)O[C@H]1CO)c1ccc(Cl)cc1	0.2	2	8	2.1
COCCNc1nc(Oc2ccc(Cl)c(Cl)c2)c2sccc2n1	-4.1	-1	0	-6.4
Cc1cc(F)ccc1-c1cc(C(=O)NCc2cccc(C(F)(F)F)c2)[nH]n1	2.7	1	4	2.0
COc1ccc(NC(=O)C2(C)CCCN2C(=O)C(C)C)cc1OC (configuration not stated)	-1.8	0	8	-0.6
CC1C=NC(S(=O)(=O)N2CC[C@@H]3[C@@H](CO)N(C)c4ccc(C5=CCCCC5)cc4[C@@H]32)=N1 (some centres not stated)	3.2	-11	-4	2.7
COCC(=O)Nc1ccc2c(c1)[C@H]1C[C@H](CC(=O)NCCN3CCCCC3)O[C@H](CO)[C@H]1O2	0.3	4	8	-2.2
CC(C)C[C@@H]1COc2cccc(NC3CC3)c2S(=O)(=O)N1	-2.6	1	-2	-1.6
C[C@@H]1CCCCO[C@H](CN(C)CC2CCCCC2)[C@H](C)CN([C@H](C)CO)C(=O)c2cc(NS(=O)(=O)c3ccc(F)cc3)ccc2O1	8.2	-45	-74	-1.7
CC(C)NC(=O)Nc1ccc2c(c1)C(=O)N([C@@H](C)CO)C[C@@H](C)[C@@H](CN(C)Cc1ccc3c(c1)OCO3)OCCCC[C@@H](C)O2	2.1	-2	0	-1.2
CCCC(=O)Nc1ccc2c(c1)OC[C@@H](C)N(C(=O)c1ccncc1)C[C@@H](C)[C@@H](OC)CN(C)C2=O	1.2	1	4	1.6
COc1ccccc1NC(=O)N[C@@H]1CC[C@H](CCn2cc(-c3cccnc3)nn2)O[C@H]1CO	-15	3	6	-0.2
CC(C)NC(=O)Nc1ccc2c(c1)CC(=O)N([C@H](C)CO)C[C@@H](C)[C@H](CN(C)Cc1ccc(Cl)c(Cl)c1)O2	-6.9	0	-25	3.3

Entries listed so far that contain two or more sulfur atoms (2):
SMILES	MLL AF4-AF9 inh	rRNA inh HTS	rRNA inh HTS OD600	rRNA inh HTS RFP
Cc1ccc(S(=O)(=O)N(C)C[C@@H]2OCCCC[C@H](C)Oc3ccc(NS(=O)(=O)c4cn(C)cn4)cc3C(=O)N([C@H](C)CO)C[C@H]2C)cc1	3.7	-1	-2	-1.2
C[C@H]1CN([C@@H](C)CO)C(=O)Cc2cc(NS(=O)(=O)c3ccc(Cl)cc3)ccc2O[C@H]1CN(C)S(=O)(=O)c1ccc(Cl)cc1	2.9	1	1	3.4

(listing goes on)
SMILES	MLL AF4-AF9 inh	rRNA inh HTS	rRNA inh HTS OD600	rRNA inh HTS RFP
C[C@H](CO)N1C[C@H](C)[C@H](CN(C)Cc2ccc(Oc3ccccc3)cc2)Oc2ccc(NS(=O)(=O)c3cn(C)cn3)cc2C1=O	5.9	-1	-3	1.8
O=C(NCc1ccccc1)C(c1ccccc1)n1c(-c2ccccn2)nc2ccccc21 (configuration not stated)	-0.6	-8	-4	6.5
COc1ccc2c3c([nH]c2c1)[C@H](CO)N(C(=O)c1ccccn1)CC31CCN(C(=O)C2CCCCC2)CC1	0.8	-5	10	-1.6
Cc1cc(-c2ccccc2)nc(Nc2nc3c(C)cccc3c(=O)[nH]2)n1	-34	26	16	-0.6
COCCCNC(=O)C[C@@H]1C[C@@]2(C(=O)OC)CCCCC=C2N(Cc2cccc3ccccc23)C1=O	2.3	-15	-52	25
COCC(=O)N1[C@@H](CO)[C@H](c2ccccc2)C12CN(C(=O)NC1CCCC1)C2	-2.6	2	9	-2.3
C[C@@H]1CN([C@H](C)CO)C(=O)Cc2cc(NC(=O)C3CCCCC3)ccc2O[C@H]1CN(C)CC1CC1	-2.6	5	-1	-2.2
C[C@@H]1CN([C@@H](C)CO)S(=O)(=O)c2ccc(-c3ccncc3)cc2O[C@@H]1CN(C)S(=O)(=O)c1ccccc1F	2.9	-5	-18	-0.8
Cc1ccc(S(=O)(=O)N(C)C[C@@H]2OCc3ccccc3-c3c(n(C)c4ccccc34)C(=O)N([C@H](C)CO)C[C@H]2C)cc1	-0.1	4	-4	2.9
COc1ccc(S(=O)(=O)Nc2ccc3c(c2)C(=O)N([C@@H](C)CO)C[C@@H](C)[C@H](CN(C)Cc2ccncc2)OCCCC[C@H](C)O3)cc1	-3.0	-2	6	-1.2
C[C@H](CO)N1C[C@H](C)[C@H](CN(C)Cc2ccc(Cl)c(Cl)c2)Oc2c(NC(=O)c3ccc(-c4nccs4)cc3)cccc2C1=O	3.1	-2	2	0.4
CN1C(=O)c2cc(NC(=O)C3CCCCC3)ccc2OC[C@@H]2O[C@H](CC(=O)NC3CCCC3)CC[C@@H]21	-1.2	-3	3	-1.4
C[C@@H]1CCCCO[C@H](CN(C)S(C)(=O)=O)[C@@H](C)CN([C@@H](C)CO)C(=O)c2cc(NC(=O)NC3CCCCC3)ccc2O1	0.0	2	-4	-0.9
C[C@H]1CN([C@@H](C)CO)C(=O)Cc2cc(NS(=O)(=O)c3ccccc3)ccc2O[C@@H]1CN(C)Cc1ccc(C(=O)Nc2ccccc2N)cc1	-3.5	1	-8	-0.3
C[C@@H](CO)NC(=O)c1[nH]cnc1C(=O)Nc1ccccc1	-0.5	7	-5	3.1
COCCNC(=O)C[C@H]1CC[C@@H]2[C@H](COC[C@@H](O)CN2C(=O)Nc2ccccc2OC)O1	-4.0	-1	0	-3.5
CO[C@@H]1CN(C)C(=O)c2ccc(NC(=O)C3CC3)cc2OC[C@H](C)N(C(=O)c2ccccn2)C[C@@H]1C	-1.7	2	4	-2.5
Cc1ccc(S(=O)(=O)N(C)C[C@H]2OCCCC[C@@H](C)Oc3ccc(NC(=O)CCCN(C)C)cc3C(=O)N([C@H](C)CO)C[C@@H]2C)cc1	-1.9	1	1	-0.8
CN1CCN(C(=O)c2cc3c(c(-c4cccc(-c5cccc(F)c5)c4)n2)[C@@H](CCO)N(S(=O)C(C)(C)C)C3)CC1 (some centres not stated)	-3.9	-5	-11	3.7
C[C@@H](NC(=O)C[C@H]1CC[C@@H]2[C@H](COC[C@@H](O)CN2C(=O)Nc2ccccc2)O1)c1ccccc1	-1.6	3	7	0.2
CC(C)NC(=O)N(C)C[C@@H]1Oc2c(NS(=O)(=O)c3cn(C)cn3)cccc2C(=O)N([C@@H](C)CO)C[C@@H]1C	-6.2	5	7	-1.4
O=C(O)C1CCCN1c1nc(Cl)ccc1[N+](=O)[O-] (configuration not stated)	-5.4	22	14	4.4
C[C@@H]1CCCCO[C@@H](CN(C)S(=O)(=O)c2cn(C)cn2)[C@@H](C)CN([C@H](C)CO)C(=O)c2cc(NC(=O)CCCN(C)C)ccc2O1	-0.8	0	3	-2.9

Bioassay records from PubChem BioAssay.

These rows are one share of the data; rates above refer to the full screens.
